Bioassay records from PubChem BioAssay.
Vif-APOBEC3F blk – blocks the Vif interaction with APOBEC3F. HeLa A3F-eYFP + Vif (tagged APOBEC3F with the HIV-1 protein that degrades it), YFP fluorescence increase. 390,000 tested, 0.2% active. Potency, µM (top dose mostly 46.1 µM), for inactives: at the highest dose activity, negative = active. AID 602313; note: potency is the fitted concentration of half-maximal effect; % of control where 0% means no effect; nearly all actives have a fitted effect of over 65% in size
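HeLa cells stably expressing A3F-eYFP plus Vif, plated and incubated overnight at 37 deg C, then exposed to compounds overnight at 37 deg C. Blocked degradation read as raised yellow fluorescence (Ex 488/Em 500-530).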
LDHA block – LDHA (human) enzyme inhibition; activity change, % (values are at about 110 or 230 µM); 480,000 tested, 0.15% active; P00338; purified LDHA, NADH/diaphorase-resazurin fluorescence; active compounds read low; in the data active = activity change below about -30%;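 note: plate controls were DMSO wells for no effect and wells without enzyme for full effect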
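Remaining NADH was detected by diaphorase (0.133 mg/mL) converting 37 µM resazurin to fluorescent resorufin, read at 0 and 20 minutes. The preceding 5-minute room-temperature reaction used 2 nM LDHA, 0.2 mM sodium pyruvate and 0.06 mM NADH at pH 7.4.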
RXFP1 ag – RXFP1 (human) receptor agonism. HEK293T-RXFP1 cAMP TR-FRET, 30 min; response scale: percent of porcine relaxin response, buffer zero. Potency, µM (series often up to 57.5 µM), inactives show at the top dose activation, actives largely listed as activators. 370,000 tested, 0.3% active. AID 2676; note: potency is the fitted concentration of half-maximal effect; % is set by controls: 0 for no effect and ±100 for the full control effect; nearly all actives have a fitted effect of over 60% in size; many of its hits are not listed in these tables
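HEK293T cells stably expressing RXFP1 were pretreated with the PDE4 inhibitor Ro 20174, exposed to compounds for 30 min at 37C, lysed, and cAMP was read by TR-FRET. Data normalized to buffer (basal) and 29 nM porcine relaxin (100%).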
GRP78 ERSR act – inducers of ER stress response in human glioma cells | 420,000 tested, 0.02% active | Potency, µM, for inactives: top-dose activation, usual class: activators | U87-MG GRP78 promoter luciferase reporter, 16 h | AID 602332; note: potency is the fitted concentration of half-maximal effect; series mostly up to about 76 µM; % of control where 0% means no effect; nearly all actives have a fitted effect of over 35% in size
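Stably transfected U87-MG glioma cells carrying a GRP78-based luciferase sensor; 16 h compound incubation. Luminescence end-point read 10 min after Bright-Glo addition at room temperature.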
D2 potentiator – positive allosteric modulators of human D2 dopamine receptor; 340,000 tested, 0.34% active; P14416; HEK293 T-REx D2, calcium flux, EC20 dopamine potentiation; potentiation, % at 10 µM; AID 485347;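 active = potentiation over 3 SD above the plate norm, cut at about 30% in these data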; note: 0% is about no effect
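Using a no-wash calcium dye in inducible, force-coupled HEK293 Trex cells expressing D2, we tracked fluorescence each second for 180 s after compound, then for 180 s after EC20 dopamine to detect augmented signalling.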
An asterisk follows results filed as active; nt = not tested or not shown; & = joins results of further samples. Unless noted, calls come from the whole dose curve; as a rule, active = well fitted curve in the direction sought with a large enough effect; inconclusive = small, poorly fitted or top-dose-only effect, or another doubt; inactive = no such curve, though single readings can be large; an effect the other way counts as inactive or inconclusive.

1. CC(C)[N+]1(C)[C@@H]2CC[C@H]1CC(OC(=O)[C@@H](CO)c1ccccc1)C2 (some centres undefined)
2. CC[N+](C)(C)c1cccc(O)c1
3. CC(C)[N+]1(C)[C@@H]2CC[C@@H]1CC(OC(=O)C(CO)c1ccccc1)C2 (some centres undefined)
4. CN=C(C[N+](=O)[O-])NCCSCc1ccc(CN(C)C)o1
5. C[C@@H]1C[C@H]2[C@@H]3C[C@H](F)C4=CC(=O)C=C[C@]4(C)[C@@]3(F)[C@@H](O)C[C@]2(C)[C@@]1(O)C(=O)CO
6. CN/C(=C/[N+](=O)[O-])NCCSCc1ccc(CN(C)C)o1
7. Cc1nn(CC(=O)O)c(C)c1Cl
8. C[C@@H]1C[C@H]2[C@@H]3C[C@H](F)C4=CC(=O)C=C[C@@]4(C)[C@]3(F)[C@H](O)C[C@]2(C)[C@@]1(O)C(=O)CO
9. CCCC(=O)Nc1ccc(OCC(O)CNC(C)C)c(C(C)=O)c1 (centres undefined)
10. C[C@H](C(=O)O)c1cccc(C(=O)c2ccccc2)c1
11. C[C@](N)(Cc1ccc(O)c(O)c1)C(=O)O
12. C[N+]1(C)CC[C@@H](OC(=O)[C@@](O)(c2ccccc2)C2CCCC2)C1
13. COC(=O)C1=C(C)NC(C)=C(C(=O)OCCN(C)Cc2ccccc2)C1c1cccc([N+](=O)[O-])c1 (centres undefined)

assay / entry	1	2	3	4	5	6	7	8	9	10	11	12	13
GRP78 ERSR act	-2%&-4%	-4%&-1%&-5%&-3%	-2%	-4%	-1%	-4%	0%	-3%	-4%&-5%	4%&13%&1%	0%&-3%&-3%&-6%&-3%	-3%	-7%&-4%&-8%&-5%&-5%
RXFP1 ag	nt	0.1%	-1.1%	nt	-1.0%	1.9%	1.7%	nt	-1.0%	-0.2%	2.9%	nt	-0.8%
Vif-APOBEC3F blk	nt	6%	9%	3%	2%	-5%	0%	nt	3%	4%	5%	nt	10%
D2 potentiator	nt	-14	-5	nt	nt	-7	-1	nt	-8	10	-4	nt	-2
LDHA block	nt	-3	-8	-8	-6	-2	-9	nt	-7	-3	-2&13	nt	5

Some of the entries so far, with tabs:
no.	canonical_smiles	GRP78 ERSR act	RXFP1 ag	Vif-APOBEC3F blk	D2 potentiator	LDHA block
5	C[C@@H]1C[C@H]2[C@@H]3C[C@H](F)C4=CC(=O)C=C[C@]4(C)[C@@]3(F)[C@@H](O)C[C@]2(C)[C@@]1(O)C(=O)CO	-1%	-1.0%	2%	nt	-6
6	CN/C(=C/[N+](=O)[O-])NCCSCc1ccc(CN(C)C)o1	-4%	1.9%	-5%	-7	-2

An excerpt from above, reduced to GRP78 ERSR act and Vif-APOBEC3F blk.
| No. | Structure | GRP78 ERSR act | Vif-APOBEC3F blk |
| --- | --- | --- | --- |
| 6 | CN/C(=C/[N+](=O)[O-])NCCSCc1ccc(CN(C)C)o1 | -4% | -5% |
| 7 | Cc1nn(CC(=O)O)c(C)c1Cl | 0% | 0% |
| 8 | C[C@@H]1C[C@H]2[C@@H]3C[C@H](F)C4=CC(=O)C=C[C@@]4(C)[C@]3(F)[C@H](O)C[C@]2(C)[C@@]1(O)C(=O)CO | -3% | nt |
| 9 | CCCC(=O)Nc1ccc(OCC(O)CNC(C)C)c(C(C)=O)c1 (centres undefined) | -4%&-5% | 3% |

The list is partial (hit frequency here may not be typical).
